CDC25B-CDK2 inh – human CDC25B-CDK2/CyclinA binding inhibition | AID 1259370 | P30305+P24941 | hit rate 0.72% among 94,000 | HTRF CDC25B-CDK2/CyclinA binding, anti-His/anti-Flag; hits give high values | z-score (concentration not given with the values);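 note: score is relative to mean and SD of negative controls; strong numbers were not always called active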
HIV TAR-Tat – HIV-1 TAR-Tat binding disruption | hit rate 0.6% among 100,000 | z-score (test concentration not listed) | HIV-1 TAR RNA, Tat peptide displacement FRET; hits give high values | AID 1259389;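 note: score is relative to mean and SD of negative controls; some compounds called inactive have numbers as strong as hits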
Starred values were filed as active, the others as inactive; x = no result given.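 Rule for the calls: active = z-score from 3 up in half or more of its runs; inactive = the rest.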

SMILES	CDC25B-CDK2 inh	HIV TAR-Tat
COc1ccc(COC(=O)C2=C(C)Nc3nc4ccccc4n3C2c2ccc(OC)cc2OC)cc1 (stereo not drawn)	-0.58	-0.97
Cc1nnsc1C(=O)Nc1nnc(C(C)C)s1	-0.59	1.65
CNC(=O)c1cn2c3c(ccc(Cl)c3c1=O)OC(C)C2 (stereo not drawn)	x	1.07
CC(C)=CCC/C(C)=C/CC/C(C)=C/CC/C(C)=C/CC/C(C)=C/CC/C(C)=C/CC/C(C)=C/CC/C(C)=C/CC/C(C)=C/CO	x	31.6*
COc1ccc(OC)c(C2=NOC(C(=O)NC(C)C)C2)c1 (stereo not drawn)	-0.01	0.12
CC1=C(c2ccc(C)cc2)S(=O)(=O)N(Cc2ccc(C(=O)NCc3ccc(C)cc3)cc2)C1=O	x	1.08
CC(C)CCNC(=O)c1cc2c(s1)CS(=O)(=O)C2	-1.44	x
CCOC(=O)c1nc(Nc2ccc(F)cc2Cl)c2c(C)noc2n1	x	0.72
CCOc1ccc(S(=O)(=O)Nc2ccccn2)cc1C	-0.01	0.64
CCOC(=O)Cn1nnc(CSc2ccc(Cl)cc2)n1	-1.16	x
COc1cc(Cl)c(NC(=O)Cn2cnc(S(=O)(=O)N3CCCC3)c2)c(OC)c1	x	-0.65
CCOC(=O)c1c(S(=O)(=O)Nc2ccc(Br)c(C)c2)c(C)n(C)c1C	x	-0.01
Cc1cccc(-n2cc(-c3ccccc3)c3c(NCc4ccccn4)ncnc32)c1	x	0.02
CSc1cccc(NC(=O)Cn2ncc3c([nH]c4ccccc43)c2=O)c1	x	-1.01
Cc1cc(NCc2cccnc2)nc(-n2cc([N+](=O)[O-])cn2)n1	x	1.93
Cc1ccccc1CNc1nc(N2CCCC2)nc2c1cnn2C	x	1.56
CC1CCc2ccc(F)cc2N1S(=O)(=O)c1cccs1 (stereo not drawn)	-2.69	1.83
Cn1c(=O)c2c(nc(N3CCCCCC3)n2Cc2ccc(F)cc2)n(C)c1=O	-1.22	x
O=C(c1csc2c1CCCCC2)N1CCN(c2ccccc2)CC1	-1.14	-0.42
CCOC(=O)c1c(C)oc2nc(C)nc(N3CCC(c4ccccc4)C3)c12 (stereo not drawn)	x	0.45
O=C(c1cnn2c1NC(c1cccs1)CC2C(F)(F)F)N1CCSCC1 (stereo not drawn)	-0.73	x
COc1cccc(-c2nnc3sc(CN4CCc5ccccc5C4)cn23)c1	x	2.01
Cc1ccc2c(c1)sc1nc(C)c(S(=O)(=O)Nc3ccccc3)c(=O)n12	x	0.75
O=C(NC1CCCC1)NS(=O)(=O)c1ccccc1Cl	-0.06	0.35
COC(=O)c1sc(NC(=O)CSc2nnc3cc(C)c4ccccc4n23)c(C(=O)OC)c1C	-0.04	0.2
CCOC(=O)c1c(NC(=O)N(Cc2ccc(C)o2)C2CCN(C(C)=O)CC2)sc2c1CCCC2	x	0.89
O=C(c1cnc(N2CCOCC2)nc1)N1CCOCC1	x	0.89
CCOC(=O)C(C)Oc1cc2oc(=O)cc(-c3ccccc3)c2cc1Cl (stereo not drawn)	-1.32	x
CCCN1C(=O)C2(/C(=C(/O)c3ccc(F)cc3)C(=O)C(=O)N2CCN(C)C)c2ccccc21 (stereo not drawn)	0.49	3.57
Cc1ccc(S(=O)(=O)[C@H]2CS(=O)(=O)C[C@@H]2NCc2ccccc2C)cc1	0.94	0.45
CCOCCCNC(=O)c1oc2ccc3nc(N(C)C)sc3c2c1C	x	0.6
COC(=O)C1=C(C)NC2=C(C(=O)CC(c3ccc(Cl)cc3)C2)C1c1ccc(O)c(OC)c1 (stereo not drawn)	-1.7	1.72
Cc1ccc(C(=O)c2ccc(Br)cc2)cc1S(N)(=O)=O	-0.37	1.86
COc1cccc(Nc2nc(N3CCN(C)CC3)nc3c2cnn3C)c1	x	0.65
Cc1ccc(C2NC(=O)CS2)cc1 (stereo not drawn)	x	0.4
O=C(Nc1cccc2nsnc12)c1cc2cc(Cl)ccc2[nH]1	x	-0.86
CCc1nc(N)c(C#N)c(-c2cccs2)c1C	-1.24	-0.65
CCCCOc1ccccc1-c1cc(-c2nc(-c3ccc4c(c3)OCO4)no2)[nH]n1	x	0.92
COc1ccc(-c2nn3c(=O)cc(COc4ccccc4OC)nc3s2)cc1	-1.23	0.86
Cc1ccccc1OCc1n[nH]c(=S)n1C	1.8	x
CCOC(=O)c1c(SC)n[nH]c1C	-2	x
Cc1ccc(S(=O)(=O)n2nc(-c3ccccc3Cl)nc2N)cc1	0.19	0.5
NC(=O)C1CCN(C2CC(=O)N(c3ccccc3)C2=O)CC1 (stereo not drawn)	-1.35	-0.83
CN1C(=O)c2ccccc2Sc2ccc(NC(=O)N3CCN(C(=O)c4ccco4)CC3)cc21	-1.13	-0.47
CCSCCOC(=O)C1=C(C)NC2=C(C(=O)CC(C)(C)C2)C1c1ccccc1F (stereo not drawn)	-0.87	1.74
O=c1c2c(-c3ccco3)csc2[nH]c(=S)n1-c1ccccc1	-0.07	x
O=C(O)C1=CC(c2ccc3c(c2)OCO3)n2ncnc2N1 (stereo not drawn)	-2.46	-1.33
Cc1cc(N2CCn3c(nc4ccccc43)C2)ccc1N	7.21	-9.41
Brc1ccc(CN2CCc3nc(N4CCN(c5ccccn5)CC4)ncc3C2)cc1	x	0.81
O=c1cc(-c2ccccc2)nc(NCc2ccccc2)[nH]1	-1.1	0.87
Brc1ccc(-n2cc(-c3ccccc3)c3c(N4CCOCC4)ncnc32)cc1	x	1.75
Clc1cccc(NCc2cccc3c2CN(CC2CCCO2)C3)c1 (stereo not drawn)	1.2	-1
COc1ccc(S(=O)(=O)NCCc2cn3cccc(C)c3n2)cc1C	1.12	x
COCCCN1C(=O)CC(C(=O)OC)=C1C	-0.77	4.57
Clc1ccccc1Cn1cccc1C1=NC(Cc2ccccc2)CO1 (stereo not drawn)	x	0.69
COn1c(C)c(C(C)=O)c2c3nonc3ccc21	0.92	x
C=C1CC(C)OC(C(C)(C)COC(=O)NC2CCCCC2)C1 (stereo not drawn)	-1.3	0.56
CC(C)NC(=O)NCC12CC3CC(C1)CC(CNC(=O)NC(C)C)(C3)C2	-2.56	x
COc1ccc2ccccc2c1C1CC(=O)N2CN(Cc3ccccc3)CSC2=C1C#N (stereo not drawn)	5.38*	1.59
Cc1ccc(N2CC(O)=C(c3nc4ccccc4c(=O)[nH]3)C2=N)cc1Cl	-1.95	-0.06

Next part:
SMILES	CDC25B-CDK2 inh	HIV TAR-Tat
CC(CNC(=O)C1CCN(C(=O)c2cc3sccc3n2C)CC1)c1ccccc1 (stereo not drawn)	-0.65	x
CC1CCN(C(=O)CCCC(=O)O)CC1	0.68	0.18
N/C(=N\OC(=O)c1cccs1)c1ccc(Oc2ccc(C(F)(F)F)cc2[N+](=O)[O-])cc1	-3.33	x
Cc1[nH]nc(-n2cnnc2)c1NC(=O)CC(C)C	-0.61	2.22
CCC(O)c1nc2ccccc2n1Cc1ccc(Cl)cc1 (stereo not drawn)	-0.5	1.62
Cc1ccc(S(=O)(=O)Nc2cc(S(=O)(=O)c3ccc(C)cc3)c(O)c3cccnc23)cc1	0.77	1.5
CCCc1nnc(NC(=O)Cn2c(=O)oc3cc(Br)ccc32)s1	-1.05	1.59
CCNc1cc(N2CCN(CC)CC2)c2noc3c2c1C(=O)c1ccccc1-3	-0.45	0.91
CCCc1cc2c(=O)c(-c3ccc(C(=O)OCC)o3)coc2cc1OC(C)=O	0.74	x
Cc1nc(N2CCCC(C(=O)NC(C)C)C2)c2c(C)noc2n1 (stereo not drawn)	x	1.78
Cc1ccc2oc(-c3cc(NC(=O)c4sc5ccccc5c4Cl)ccc3Cl)nc2c1	0.66	x
Cc1ccc(S(=O)(=O)NCCc2sc(-c3ccc(Cl)cc3)nc2C)c(C)c1	x	0.64
CSc1nc(N)nc2nc[nH]c12	-1.09	x
CCC(C)NC(=O)C1CCCN(S(=O)(=O)N2CCOCC2)C1 (stereo not drawn)	x	4.31
CSc1cccc(NC(=O)NCCN2CCNC2=O)c1	-0.83	x
CC(=O)N1c2ccccc2NC2=C(C(=O)CC(c3ccc(C(C)(C)C)cc3)C2)C1c1ccncc1 (stereo not drawn)	-0.38	x
O=C(NCCSc1nnnn1-c1ccccc1)Nc1ccccc1	-1.01	1.22
C=CCn1c(SCC(=O)N2CCC(C)CC2)nc2sc3c(c2c1=O)CCCC3	-2.11	x
COc1ccccc1C(=O)OCc1cc(=O)n2nc(C3CC3)sc2n1	x	0.94
COC(=O)c1scc(C)c1N1C(=O)c2ccccc2C1=O	0.27	x
C=CCN1C(=O)C(O)(CC(=O)c2ccc(Cl)cc2)c2cc(Br)ccc21 (stereo not drawn)	-0.37	x
CCOC(=O)c1ccc(NC(=O)C2Cc3ccccc3C(=O)O2)cc1 (stereo not drawn)	-0.63	x
Cc1nc2ccc(S(=O)(=O)c3ccc4nc(C)[nH]c4c3)cc2[nH]1	1.38	x
O=c1c2[nH]c3ccccc3c2ncn1CCCN1CCCC1	0.36	1.01
O=CC1=C(c2ccccc2)Oc2ccccc2O1	-5.08	x
CCC(=O)Oc1ccc(NC2=NS(=O)(=O)c3ccccc32)cc1	-1.53	x
c1cc(-c2nc3c4c5c(sc4ncn3n2)CCCCC5)ccn1	0.07	0.48
Cc1ccsc1C1C=C(c2ccc(Br)cc2)Nc2nnnn21 (stereo not drawn)	-2.83	x
O=C(CSC(=S)N1CCOCC1)c1ccc(Cl)cc1	-1.33	x
O=C1CN(Cc2ccc(F)cc2)S(=O)(=O)c2ccccc2N1Cc1ccccc1F	x	1.16
Cc1cc(S(=O)(=O)[C@H]2CS(=O)(=O)C[C@@H]2NCCC(C)C)ccc1F	-1.18	0.11
COc1ccc(S(=O)(=O)N2CCC(N3CCCCC3)CC2)cc1	-0.61	x
O=S(=O)(NCCc1csc2nc(-c3ccc(Cl)cc3)nn12)c1ccccc1F	x	0.47
CSc1nc(-c2ccc(C(C)(C)C)cc2)c(C#N)c(=O)[nH]1	-0.07	0.76
CCCCCNC(=O)c1ccc2c(=O)[nH]c3c(C(=O)NCC4CCCO4)sc(=S)n3c2c1 (stereo not drawn)	x	-1.06
COCc1cc(CN2CCCC2)c(O)c2ncccc12	5.26	0.25
Cc1nn2c(=O)cc(CSc3nc(-c4ccccc4F)nc4cc(=O)[nH]n34)nc2s1	x	1.05
N#CCN1CCC/C1=C\[N+](=O)[O-]	-3.64	x
Cc1nn(CC(=O)NC(C)C)c(=O)c2nn(-c3ccccc3)c(C)c12	x	0.62
COc1cc([C@@H]2c3cc4c(cc3C(OC3O[C@@H]5COC(C)O[C@H]5[C@H](O)[C@H]3O)C3COC(=O)[C@@H]32)OCO4)cc(OC)c1O (stereo partly drawn)	x	0.06
CC(C)C(Nc1ncnc2sc3c(c12)CCC3)C(=O)O (stereo not drawn)	1.23	x
COc1cc(OC)cc(C(=O)Nc2ccc3c(c2)C(=O)c2ccccc2C3=O)c1	1.24	x
O=C(O)C1=C(C(=O)NC2CCCc3ccccc32)SCCS1 (stereo not drawn)	-0.71	x
O=c1c(O)c(-c2ccccc2)oc2cc(O)cc(O)c12	x	1.14
COc1cccc(CSc2nc3ccncc3n2Cc2ccc(F)cc2)c1	-0.93	-0.48

Molecules shown so far that have a cyano group, in the order listed:
SMILES	CDC25B-CDK2 inh	HIV TAR-Tat
CCc1nc(N)c(C#N)c(-c2cccs2)c1C	-1.24	-0.65
COc1ccc2ccccc2c1C1CC(=O)N2CN(Cc3ccccc3)CSC2=C1C#N (stereo not drawn)	5.38*	1.59
CSc1nc(-c2ccc(C(C)(C)C)cc2)c(C#N)c(=O)[nH]1	-0.07	0.76
N#CCN1CCC/C1=C\[N+](=O)[O-]	-3.64	x

Back to the main list with the three entries that preceded the break.
SMILES	CDC25B-CDK2 inh	HIV TAR-Tat
O=C(O)C1=C(C(=O)NC2CCCc3ccccc32)SCCS1 (stereo not drawn)	-0.71	x
O=c1c(O)c(-c2ccccc2)oc2cc(O)cc(O)c12	x	1.14
COc1cccc(CSc2nc3ccncc3n2Cc2ccc(F)cc2)c1	-0.93	-0.48
C=CCn1c(N)c(C(=O)NCC)sc1=S	-1.09	-0.31
COc1cccc(NC(=O)c2cc3ccccc3c(=O)s2)c1	-0.86	-0.74
COc1ccc(C(=O)c2ccccc2)c(O)c1O	x	0.94
O=C(C1CCCN(c2ncnc3onc(-c4ccc(F)cc4)c23)C1)N1CCCCC1 (stereo not drawn)	x	-0.52
C=CCNCc1ccc(Oc2nnnn2-c2ccccc2)c(OCC)c1	x	0.47
Fc1cccc(-n2ncc3c2ncn2nc(-c4ccccc4Cl)nc32)c1	-0.8	0.91
Cc1ccccc1N1OC2C(=O)N(c3sc4c(c3C#N)CCCC4)C(=O)C2C1c1ccco1 (stereo not drawn)	-1.57	x
CC1CN(c2ncnc3sc4c(c23)CCCC4)CC(C)O1 (stereo not drawn)	-0.54	x
O=C(Cc1cccs1)Nc1ccc(Sc2nc3ccccc3n3nnnc23)cc1	-2	0.08
CN(CC(=O)NC1CCCCC1)S(=O)(=O)c1cc2c(cc1Cl)NC(=O)CO2	x	0.41

Some of these compounds in order of SMILES length, rising:
SMILES	CDC25B-CDK2 inh	HIV TAR-Tat
COCc1cc(CN2CCCC2)c(O)c2ncccc12	5.26	0.25
O=C(O)C1=CC(c2ccc3c(c2)OCO3)n2ncnc2N1 (stereo not drawn)	-2.46	-1.33
C=CCNCc1ccc(Oc2nnnn2-c2ccccc2)c(OCC)c1	x	0.47
Cc1nc(N2CCCC(C(=O)NC(C)C)C2)c2c(C)noc2n1 (stereo not drawn)	x	1.78
Cc1nc2ccc(S(=O)(=O)c3ccc4nc(C)[nH]c4c3)cc2[nH]1	1.38	x
CCSCCOC(=O)C1=C(C)NC2=C(C(=O)CC(C)(C)C2)C1c1ccccc1F (stereo not drawn)	-0.87	1.74

Source: PubChem
